Screens from PubChem BioAssay.
LT uptake inh – blocks cellular internalization of anthrax lethal toxin. Cells, anthrax lethal toxin internalization, FRET ratio (460/530). Potency, µM (highest dose often 40 µM), for the others: top-dose activity change, negative = inhibition, most hits filed as inhibitors. hit rate 0.67% among 70,000. AID 912; active = well fitted falling ratio curve with the 530 nm signal flat; inconclusive = other ratio curves, or a change in one channel alone; inactive = flat curves in the ratio and both channels; the % refers to the ratio; further: on the % scale 0 is the no-effect control and ±100 the full control effect; nearly all actives have a fitted effect of over 50% in size; tested in ME-180 cells; beta-lactamase reporter
Prx2 Sm inh – inhibitors of Schistosoma mansoni peroxiredoxin 2; Potency, µM; hit rate 0.07% among 65,000; S. mansoni Prx2 activity coupled to TGR/GSH (TGR is thioredoxin glutathione reductase), NADPH fluorescence loss, qHTS; some inactives read as strong as hits; active means full or partial inhibition curve with a strong effect at the top dose; inconclusive means weaker partial or single-point curve; inactive means no accepted curve; further: series up to 57 µM; many of its hits are not listed in these tables
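Coupled assay in which S. mansoni TGR passes NADPH reducing equivalents via glutathione to Prx2, which reduces H2O2. Compounds were preincubated 15 min at room temperature with 25 nM TGR/50 nM Prx2 mix. Kinetic NADPH fluorescence loss (ex 365/em 450 nm) was monitored.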
An asterisk follows results filed as active; [ ] = another dose, or the depositor's remark. Potency means the concentration at half of the fitted maximal effect.

Cn1nnnc1P(=O)(c1ccccc1)c1ccccc1 was read as LT uptake inh 0% and Prx2 Sm inh >57.
Screening CCCCCCCCC(=O)NCc1ccc(O)c(OC)c1 returned LT uptake inh -1% and Prx2 Sm inh >57.
For C[C@H](Br)C(=O)c1ccc2cc(Br)c3ccccc3c2c1 the results were LT uptake inh -9%[8 µM] and Prx2 Sm inh >57.
`Cc1cccc(-n2ncc3c(NCc4cccs4)ncnc32)c1` gave LT uptake inh inconclusive and Prx2 Sm inh >57.
Screening CCC(=O)Nc1ccc2nc(SCC(=O)N3CCCC3)sc2c1 returned LT uptake inh inconclusive and Prx2 Sm inh >57.
For COC(=O)Cn1ncn2c(cc3oc(C)cc32)c1=O the results were LT uptake inh 22% and Prx2 Sm inh >57.
For Cc1cc(C)n2cc(CSCc3ccco3)nc2n1 the results were LT uptake inh 1% and Prx2 Sm inh >57.
Screening COc1cccc(N2CCN(Cc3nc(N)nc(Nc4ccccc4)n3)CC2)c1 returned LT uptake inh -21%.
`CCOc1ccc(OCc2ccc(C(=O)N3CCCC3)o2)cc1` gave LT uptake inh 11% and Prx2 Sm inh >57.
Screening COc1ccc(-c2n[nH]c(C)c2-c2ccc(OC)c(OC)c2)c(O)c1 returned LT uptake inh inconclusive and Prx2 Sm inh >57.
Nc1c(S(=O)(=O)c2cccc(Cl)c2)c2nc3ccccc3nc2n1/N=C/c1ccc(O)c(O)c1 was read as LT uptake inh inconclusive and Prx2 Sm inh >57.
Screening COc1ccc2[nH]cc(CCNc3ccnc(-c4ccc(C(=O)N(C)C)cc4)n3)c2c1 returned LT uptake inh -20% and Prx2 Sm inh >57.
Screening CSc1nnc2c(n1)OC=Nc1ccccc1-2 returned LT uptake inh -1% and Prx2 Sm inh >57.
`CCO/C=N/c1c(C#N)c2c(c(=S)n1C)COC(C)(C)C2` gave LT uptake inh -15% and Prx2 Sm inh >57.
Clc1cccc2c1CN(C1=NCCN1)C2 was read as LT uptake inh -14% and Prx2 Sm inh >57.
Screening Cc1cc(NS(=O)(=O)c2ccc(NC(=O)NC3CCCCC3)cc2)no1 returned LT uptake inh -4% and Prx2 Sm inh >57.
Screening O=C(Nc1ccc(F)cc1)C1CCCCC1 returned LT uptake inh -3% and Prx2 Sm inh >57.
`COc1ccccc1NC(=O)c1ccc(N)cc1` gave LT uptake inh 4% and Prx2 Sm inh >57.
Screening O=C(NCc1cccs1)C1CCCN1C(=O)Nc1ccccc1 (stereo not given) returned LT uptake inh -7% and Prx2 Sm inh >57.
For O=C(Cn1cnc2c(nnn2Cc2ccccc2)c1=O)N1CCCc2ccccc21 the results were LT uptake inh 2% and Prx2 Sm inh >57.
`Cc1cccc(NC(=O)Cn2c(C)c(C#N)c3ccccc32)c1C` gave LT uptake inh -12% and Prx2 Sm inh >57.
`CCc1nc(NCCN2CCOCC2)c2oc3ccccc3c2n1` gave LT uptake inh inconclusive and Prx2 Sm inh >57.
N#Cc1c(NC(=O)CSc2nnc(-c3ccncc3)n2CC2CCCO2)sc2c1CCCC2 (stereo not given) was read as LT uptake inh -3% and Prx2 Sm inh >57.
Screening CC(=O)NC1C2CN3CCN(C2)CC1(Cc1ccccc1)C3 (stereo not given) returned LT uptake inh 0% and Prx2 Sm inh >57.
Screening NC(=O)c1ccsc1NC(=O)COc1ccccc1 returned LT uptake inh -3% and Prx2 Sm inh >57.
Screening Cc1nc(NC2=NCN(Cc3cccnc3)CN2)nc2c(C)cccc12 returned Prx2 Sm inh >57.
For CC(=O)N1C2CCCCC2S[C@H]2CCCCC21 (stereo not given in full) the results were Prx2 Sm inh >57.
Screening NS(=O)(=O)c1ccc(C(=O)O)cc1 returned LT uptake inh -3%[8 µM] and Prx2 Sm inh >57.
COc1cc(C(=O)N2CCC(c3nc(-c4cccnc4)no3)CC2)cc(OC)c1OC was read as LT uptake inh -8% and Prx2 Sm inh >57.
For CCn1ncc(Br)c1C(=O)Nc1cc(C)ccc1F the results were LT uptake inh -11% and Prx2 Sm inh >57.
COc1ccccc1CN(C(=O)c1ccco1)C(C(=O)NC1CCCC1)c1ccncc1 (stereo not given) was read as LT uptake inh -3% and Prx2 Sm inh >57.
For CC(=O)Oc1cccc(N2C(=O)C3C4C=CC(C4)C3C2=O)c1 (stereo not given) the results were LT uptake inh -2%.
Screening CC(C)N1CC23C=CC(O2)C(C(=O)OCc2ccccc2)C3C1=O (stereo not given) returned LT uptake inh 1% and Prx2 Sm inh >57.
For Cc1ccc(C(=O)N(c2ccccn2)C(C)c2ccco2)cc1 (stereo not given) the results were LT uptake inh -4% and Prx2 Sm inh >57.
O=C(COC(=O)C1CCCCC1)Nc1ccc(N2CCCCC2)cc1 was read as LT uptake inh -5% and Prx2 Sm inh >57.
COc1cc(SC)ccc1C(=O)OC1CCOC1=O (stereo not given) was read as LT uptake inh 19% and Prx2 Sm inh >57.
`CCOC(=O)C1=C(N)OC2=C(C(=O)CCC2)C12C(=O)N1c3c(ccc(C)c32)C(C)=CC1(C)C` (stereo not given) gave LT uptake inh -5% and Prx2 Sm inh >57.
Screening O=C(CSc1n[nH]c(-c2ccccc2)n1)c1ccc(O)c(O)c1 returned LT uptake inh -10% and Prx2 Sm inh >57.
`Cc1ccc(S(=O)(=O)NCCNC(=O)C2CCCNC2=O)cc1` (stereo not given) gave LT uptake inh -23% and Prx2 Sm inh >57.
Screening COc1ccc2c(c1)CCc1cc(C(=O)N3CCN(c4ccc(N5CCOCC5)nn4)CC3)sc1-2 returned LT uptake inh inconclusive and Prx2 Sm inh >57.
`CS(=O)(=O)N(CC(=O)NCCSC1CCCCC1)c1ccc2c(c1)OCO2` gave LT uptake inh -22% and Prx2 Sm inh >57.
Screening Cc1ccc(S(=O)(=O)N2CCC(C(=O)N3CCC[C@H]3C(=O)NCc3ccccc3)CC2)cc1 returned LT uptake inh -6% and Prx2 Sm inh >57.
For O=C(NCN1C(=O)C2C3C=CC(C3)C2C1=O)OC1CCCCC1 (stereo not given) the results were LT uptake inh -19% and Prx2 Sm inh >57.
For O=C(Nc1ccccc1)c1cccc(N2C(=O)CCC2=O)c1 the results were LT uptake inh -5% and Prx2 Sm inh >57.
`Cc1ccc2nc3c(cc(C#N)c(=O)n3CCN3CCOCC3)c(=O)n2c1` gave LT uptake inh inconclusive and Prx2 Sm inh >57.
Screening Cc1ccc(S(=O)(=O)n2nc(OC(=O)c3ccco3)cc2N)cc1 returned LT uptake inh -22% and Prx2 Sm inh >57.
Screening O=C1CC(N2CCOCC2)C(=O)N1CCN1C(=O)CC(N2CCOCC2)C1=O (stereo not given) returned LT uptake inh inconclusive and Prx2 Sm inh >57.
For O=C1c2cccnc2-c2ncccc21 the results were LT uptake inh 3% and Prx2 Sm inh >57.
CN(C(=O)c1ccc(=O)[nH]c1)C1(C(=O)NC2CCCCC2)CCCCC1 was read as LT uptake inh -6% and Prx2 Sm inh >57.
Screening COc1ccc(OCC(=O)Nc2ccccc2OC)cc1 returned LT uptake inh -8%.
CC(=O)OCCN1C(=O)c2cccnc2C1=O was read as LT uptake inh 2% and Prx2 Sm inh >57.
`CC(C)C(NS(=O)(=O)c1ccc2c(c1)oc(=O)n2C)C(=O)N1CCN(C2CCCCC2)CC1` (stereo not given) gave LT uptake inh 6% and Prx2 Sm inh >57.
Screening CCOn1c(=O)c(-c2ccc(OC)cc2)[n+]([O-])c2ccccc21 returned LT uptake inh 16% and Prx2 Sm inh >57.
C=CCc1c(C)[nH]c2ccc(C)cc2c1=O was read as Prx2 Sm inh >57.
Screening CCOC(=O)C1CCCN(C(=O)CSc2nccn2C)C1 (stereo not given) returned LT uptake inh -4% and Prx2 Sm inh >57.
`O=C(CSc1nnc(-c2cccnc2)n1Cc1ccccc1)N1CCOCC1` gave LT uptake inh 11% and Prx2 Sm inh >57.
CCC1(c2ccccc2)NC(=O)N(CC(=O)Nc2cccc(C#N)c2)C1=O (stereo not given) was read as LT uptake inh -12% and Prx2 Sm inh >57.
Screening Cn1c(SCC(=O)Nc2cccc(O)c2)nnc1-c1ccc(S(=O)(=O)N2CCOCC2)cc1 returned LT uptake inh -5% and Prx2 Sm inh >57.
COc1ccc(C(=O)CSc2nnc(-c3ccc(S(=O)(=O)N4CCOCC4)cc3)o2)cc1 was read as LT uptake inh -15% and Prx2 Sm inh >57.
`Cc1ccc(CNC(=O)C2C3C=CC4(CN(Cc5cccnc5)C(=O)C24)O3)cc1` (stereo not given) gave LT uptake inh 15% and Prx2 Sm inh >57.
CCN(CC)C(=O)c1ccc(NC(=O)CSc2nnnn2-c2cc(OC)ccc2OC)cc1 was read as LT uptake inh 4% and Prx2 Sm inh >57.
Cc1cn2nc(N)c3ccccc3c2n1 was read as LT uptake inh -5% and Prx2 Sm inh >57.
Screening COc1ccccc1C(=O)Nc1ccc(-c2nnc(SCC(=O)O)n2C)cc1 returned LT uptake inh -7% and Prx2 Sm inh >57.
For CN(C)Cc1ccccc1-c1cc(-n2ccnc2)ncn1 the results were LT uptake inh -5% and Prx2 Sm inh >57.
Cc1ccc(NC(=O)COC(=O)C2CCC(=O)N2)c(S(=O)(=O)N2CCOCC2)c1 (stereo not given) was read as LT uptake inh 8% and Prx2 Sm inh >57.
Cc1noc(C)c1-c1nccc(N2CCNCC2)n1 was read as LT uptake inh 6% and Prx2 Sm inh >57.
O=C(C1CCCCC1)N1CCC(c2nc3c(nnn3Cc3ccccc3Cl)c(=O)[nH]2)CC1 was read as LT uptake inh -6% and Prx2 Sm inh >57.
CCOc1ccccc1NC(=O)c1c(NC(=O)CNCc2ccco2)sc2c1CCC2 was read as LT uptake inh -16%.
For Cc1ccc(NC(=O)C2CC=CCC2C(=O)N2CCCCC2)cc1 (stereo not given) the results were LT uptake inh -9% and Prx2 Sm inh >57.
Screening Cc1ccc2cc3c(NC(=O)CC(C)C)nn(C)c3nc2c1 returned LT uptake inh 4% and Prx2 Sm inh >57.
O=c1c(-c2cccs2)nc2cnc(N3CCOCC3)nc2n1Cc1ccc(F)cc1 was read as LT uptake inh inconclusive and Prx2 Sm inh >57.
`CCCNC(=O)c1c(C)cc(=O)oc1C` gave LT uptake inh 6% and Prx2 Sm inh >57.

Two entries drawn at random from the list so far:
Screening Cc1ccc2cc3c(NC(=O)CC(C)C)nn(C)c3nc2c1 returned LT uptake inh 4% and Prx2 Sm inh >57.
`CCCNC(=O)c1c(C)cc(=O)oc1C` gave LT uptake inh 6% and Prx2 Sm inh >57.

Further compounds:
For COc1cc(C2c3c(-c4ccccc4)n[nH]c3C(=O)N2c2ccccc2)ccc1O (stereo not given) the results were LT uptake inh inconclusive and Prx2 Sm inh >57.
Screening FB(F)F returned LT uptake inh 1%.
`CCC1CCCCN1C(=O)CSc1nnc(CNC(=O)COc2ccc(Cl)cc2)o1` (stereo not given) gave LT uptake inh 5% and Prx2 Sm inh >57.
`Cc1nc(NCc2ccccc2)c2nc(-c3ccccc3)n(CCN(C)C)c2n1` gave LT uptake inh -5%.
`O=c1c(-c2ccccc2)c(O)nc2ccccn12` gave LT uptake inh -8% and Prx2 Sm inh >57.
O=C1CC(c2cccs2)CC(O)=C1C=NCCN1CCNCC1 (stereo not given) was read as LT uptake inh 8% and Prx2 Sm inh >57.
Screening O=C(Nc1ccc(OC(F)(F)F)cc1)C1=NCCN1 returned LT uptake inh -4% and Prx2 Sm inh >57.
Screening Cc1cc(C)c(O)c(Cc2cccc(Cc3cc(C)cc(C)c3O)c2O)c1 returned LT uptake inh -10%[8 µM] and Prx2 Sm inh >57.
For COc1cccc(CNc2nc3ccccc3n2CCN2CCCCC2)c1 the results were LT uptake inh 2% and Prx2 Sm inh >57.
CCNC(=O)N1c2ccc(OCC)cc2C(C)=CC1(C)C was read as LT uptake inh -10% and Prx2 Sm inh >57.
Screening O=C(CN1CCN(c2ccccn2)CC1)NC(=O)NC1CCCCC1 returned LT uptake inh 6% and Prx2 Sm inh >57.
CC(=O)C1=C(C)NC(SCC(=O)c2ccccc2)=C(C#N)C1CC(C)C (stereo not given) was read as LT uptake inh -6% and Prx2 Sm inh >57.

Reprinted from the part before: 3 compounds, then new ones.
CCNC(=O)N1c2ccc(OCC)cc2C(C)=CC1(C)C was read as LT uptake inh -10% and Prx2 Sm inh >57.
Screening O=C(CN1CCN(c2ccccn2)CC1)NC(=O)NC1CCCCC1 returned LT uptake inh 6% and Prx2 Sm inh >57.
CC(=O)C1=C(C)NC(SCC(=O)c2ccccc2)=C(C#N)C1CC(C)C (stereo not given) was read as LT uptake inh -6% and Prx2 Sm inh >57.
CCCn1c(=O)c2[nH]c(-c3ccc(OCC(=O)NCCN)cc3)nc2n(CCC)c1=O was read as LT uptake inh inconclusive and Prx2 Sm inh >57.
`CCOCC(=O)Nc1cc(C(=O)OC)ccc1C(=O)OC` gave LT uptake inh 7% and Prx2 Sm inh >57.
`O=C(O)CCc1nc(-c2cccs2)no1` gave LT uptake inh 9% and Prx2 Sm inh >57.
O=c1c2ccccc2nc(COc2ccccc2)n1/N=C/c1ccco1 was read as LT uptake inh 1% and Prx2 Sm inh >57.

Part of the list above in order of molar mass, highest first.
Screening COc1ccc2c(c1)CCc1cc(C(=O)N3CCN(c4ccc(N5CCOCC5)nn4)CC3)sc1-2 returned LT uptake inh inconclusive and Prx2 Sm inh >57.
For CC(=O)Oc1cccc(N2C(=O)C3C4C=CC(C4)C3C2=O)c1 (stereo not given) the results were LT uptake inh -2%.
CCNC(=O)N1c2ccc(OCC)cc2C(C)=CC1(C)C was read as LT uptake inh -10% and Prx2 Sm inh >57.
For COC(=O)Cn1ncn2c(cc3oc(C)cc32)c1=O the results were LT uptake inh 22% and Prx2 Sm inh >57.

A portion of the library; rates above refer to the full screens.
